Screening data from PubChem BioAssay.
Marburg entry: inhibitors of Marburg virus binding or entry into cells; actives 6.5% (n = 18,000); Marburg virus pseudotype entry/binding inhibition, cell-based; control for the full effect not named in the record; many of its hits are not listed in these tables; AID 720532; Potency, µM (highest dose often 49.2 µM), for the others: at the highest dose activity change, negative = inhibition, hits mostly inhibitors; active means well fitted inhibition curve with a large enough effect; inconclusive means small, poorly fitted or top-dose-only effect; inactive means no such curve, though single readings can be large or run the other way; tested in HEK293 cells; also: luciferase read-out
Lassa entry: blocks Lassa virus binding or cell entry; Lassa virus pseudotyped entry inhibition, cell-based qHTS; control for the full effect not named in the record; many of its hits are not listed in these tables; Potency, µM (titrated, usually from 49.2 µM), for inactives: at the highest dose activity change, negative = inhibition, most hits filed as inhibitors; actives 4.1% (n = 18,000); active = well fitted inhibition curve with a large enough effect; inconclusive = small, poorly fitted or top-dose-only effect; inactive = no such curve, though single readings can be large or run the other way; tested in HEK293 cells; also: luciferase read-out
Starred values were filed as active, the others as inactive; & = joins results of further samples; [ ] = dose if it differs, or a comment. % is scaled to controls: 0 for no effect and ±100 for the full control effect; potency is read from the fitted curve at half-maximal effect.

Results for Cc1noc(C)c1-c1ccc2ncnc(NCc3ccccc3)c2c1 ?
Marburg entry: 8%; Lassa entry: 30%

How did Oc1ccc(Nc2nc(-c3ccc(Cl)cc3)cs2)cc1 do in these assays?
Marburg entry: inconclusive; Lassa entry: 13µM*

Results for COc1ccccc1CNS(=O)(=O)CCNC1CCCCC1 ?
Marburg entry: -35%; Lassa entry: 10%

Results for Cc1sc(N)c(C(=O)c2cccc(C(F)(F)F)c2)c1C ?
Marburg entry: -29%; Lassa entry: -30%

Results for O=C(O)c1nn(Cc2ccc(Cl)c(Cl)c2)c2ccccc12 ?
Marburg entry: 20%; Lassa entry: 6%

What do the screens show for `C[C@@H](N)[C@@H](O)c1ccccc1`?
Marburg entry: -15%[17.8 µM]; Lassa entry: -4%[17.8 µM]

Results for CC(C)(C)NCC(O)COc1cccc2[nH]c(=O)[nH]c12 (stereo not given) ?
Marburg entry: 17%; Lassa entry: 0%

Results for C[C@H]1C[C@@H](C)O[C@@]2(C1)C(=O)Nc1ccccc12 ?
Marburg entry: 5%&4%[8.59 µM]; Lassa entry: 5%[8.59 µM]

What do the screens show for `COC(=O)c1cccc(C(=O)NCc2nc(-c3cccc(NC(=O)c4ccoc4C)c3)oc2C)c1`?
Marburg entry: inconclusive; Lassa entry: inconclusive

Results for COc1ccc(/C=C/C(=O)NCC2Cc3cccc(-c4nc(C)cnc4C)c3O2)cc1OC (stereo not given) ?
Marburg entry: -3%; Lassa entry: -11%

How did C=C(C)c1cc2cc(C(C)=O)c(O)cc2o1 do in these assays?
Marburg entry: 28%&45%; Lassa entry: 28%&35%

Results for CCN(Cc1ccncc1)Cc1ccc2c(c1)CN(C(=O)c1ccccc1)CCO2 ?
Marburg entry: inconclusive; Lassa entry: -7%

Results for CN1CCCC(CNC(=O)c2cnn(-c3nccc(-c4cccs4)n3)c2C2CC2)C1 (stereo not given) ?
Marburg entry: -20%; Lassa entry: -1%

What do the screens show for `COC(=O)C1=C(C(=O)OC)[C@@H]2N(C)c3ccc(OC)cc3[C@@]23C[C@@H](C(=O)OC)N(C(=O)N2CCNC2=O)C3=N1`?
Marburg entry: -26%[8.59 µM]; Lassa entry: -11%[8.59 µM]

How did O=C(NCC1Cc2cccc(-c3ncccn3)c2O1)C1CCOC1 (stereo not given) do in these assays?
Marburg entry: -11%; Lassa entry: -1%

What do the screens show for `COc1c2c(cc3c1OCO3)CC[N+](C)=C2`?
Marburg entry: -3%&4%; Lassa entry: 7%&8%

What do the screens show for `Cc1cc2c(c(-c3nc4ccccc4s3)c1)OC(CNC(=O)CCc1cccnc1)C2` (stereo not given)?
Marburg entry: inconclusive; Lassa entry: inconclusive

Results for c1cncc(CNc2cc(-c3ccc4c(c3)OCO4)ncn2)c1 ?
Marburg entry: 41%[activator]; Lassa entry: 53%[activator]

Results for CC(C)(CO)NC(=O)c1cnn(-c2nccc(-c3ccc4c(c3)OCO4)n2)c1C1CC1 ?
Marburg entry: 13%; Lassa entry: 8%

What do the screens show for `Cc1ncc(CNC(=O)N(CCCl)N=O)c(N)n1`?
Marburg entry: 19%; Lassa entry: 1%

How did CC(=O)OCC(=O)[C@@]12N=C(C)O[C@@H]1C[C@H]1[C@@H]3CCC4=CC(=O)C=C[C@]4(C)[C@H]3[C@@H](O)C[C@@]12C do in these assays?
Marburg entry: 1%; Lassa entry: -8%

What do the screens show for `Cc1cc(C(=O)O)ccc1[C@H](N)C(=O)O`?
Marburg entry: 25%&22%; Lassa entry: -10%&0%

How did O=C(NC(=O)c1c(F)cccc1F)Nc1ccc(Cl)cc1 do in these assays?
Marburg entry: 38%[activator]; Lassa entry: 37%[activator]

What do the screens show for `Cc1nn(C)cc1CNc1nc(C)c(-c2ccn(CC3COc4ccccc4O3)n2)s1` (stereo not given)?
Marburg entry: 1%; Lassa entry: 0%

What do the screens show for `O=C(O)c1ccccc1-c1c2cc(Br)c(=O)cc-2oc2[c]([Hg])c(O)c(Br)cc12`?
Marburg entry: inconclusive; Lassa entry: -21%

What do the screens show for `CC(Oc1cc(-n2cnc3ccc(OCC4CCN(C)CC4)cc32)sc1C(N)=O)c1ccccc1C(F)(F)F` (stereo not given)?
Marburg entry: 1.4µM*

Results for O=C(NCCc1nnc2n1CCN(Cc1ccc3c(c1)CCO3)CC2)c1ccco1 ?
Marburg entry: 6%; Lassa entry: -5%

Results for COC(=O)/C=C/c1cccc(N(Cc2ccc(-c3ccc(N(C)C)cc3)cc2)C(=O)C2CCCCC2)c1 ?
Marburg entry: inconclusive; Lassa entry: 3%

Results for CCN1C(=NCC(C)C)N[C@H](c2ccccc2)[C@H](C(=O)OC)[C@H]1C ?
Marburg entry: 8%[8.59 µM]; Lassa entry: inconclusive

How did COc1ccc(CNS(=O)(=O)CCNCc2ccccc2OC)cc1 do in these assays?
Marburg entry: -22%; Lassa entry: 12%

Molecules listed so far that contain a thiophene ring, fused or not:
Results for Cc1sc(N)c(C(=O)c2cccc(C(F)(F)F)c2)c1C ?
Marburg entry: -29%; Lassa entry: -30%

Results for CN1CCCC(CNC(=O)c2cnn(-c3nccc(-c4cccs4)n3)c2C2CC2)C1 (stereo not given) ?
Marburg entry: -20%; Lassa entry: -1%

What do the screens show for `CC(Oc1cc(-n2cnc3ccc(OCC4CCN(C)CC4)cc32)sc1C(N)=O)c1ccccc1C(F)(F)F` (stereo not given)?
Marburg entry: 1.4µM*

(next part)
Results for O=c1cc(CN2CCCC2)c2ccccc2o1 ?
Marburg entry: 21%; Lassa entry: 22%

Results for Cc1ccccc1-n1c(CF)nc2ccc(N)cc2c1=O ?
Marburg entry: 5%; Lassa entry: -2%

How did Cc1cnc(C)c(-c2cccc3c2OC(CNC(=O)C2(c4ccc(Cl)cc4)CC2)C3)n1 (stereo not given) do in these assays?
Marburg entry: -29%; Lassa entry: inconclusive

Results for CN(C)C(=O)c1ccc(-c2cncnc2NCc2cccs2)cc1 ?
Marburg entry: -12%; Lassa entry: 2%

How did Cc1cccc(C2=NN(c3ccc(Br)cc3)[C@@H](C(=O)N3CCOC3=O)[C@@H]2c2ccc(F)cc2)c1 do in these assays?
Marburg entry: -30%; Lassa entry: -15%

What do the screens show for `C[C@@H]1C(c2ccccc2)=Cc2[nH]c(=O)[nH]c2C[C@@H]1C(=O)N1CCCC1`?
Marburg entry: 8%[8.59 µM]; Lassa entry: 15%[8.59 µM]

What do the screens show for `CCOc1ccccc1OCCN[C@H](C)Cc1ccc(OC)c(S(N)(=O)=O)c1`?
Marburg entry: -24%; Lassa entry: -27%

Results for O=C(Nc1cccc(C(=O)N2CCCC2)c1)C1CCC1 ?
Marburg entry: 13%; Lassa entry: 14%

Results for CCCCNCCS(=O)(=O)NCc1ccc(OC)cc1 ?
Marburg entry: 16%; Lassa entry: 27%

How did CSc1nc2cc(Oc3cccc(Cl)c3Cl)c(Cl)cc2[nH]1 do in these assays?
Marburg entry: -2%; Lassa entry: -23%

How did COCOCCn1cc(CN2CCS(=O)(=O)N(Cc3ccc(-c4ccc(F)cc4)cc3)C(CC(C)C)C2=O)nn1 (stereo not given) do in these assays?
Marburg entry: -32%; Lassa entry: inconclusive

How did O=S1(=O)CC(N2CCC(c3ccccc3)CC2)CN1Cc1cn(Cc2ccc(C(F)(F)F)cc2)nn1 (stereo not given) do in these assays?
Marburg entry: 16%; Lassa entry: -3%

How did CCN(CC)C1CCN(C(=O)c2cnn(-c3ncc4c(n3)-c3ccccc3CCC4)c2COC)C1 (stereo not given) do in these assays?
Marburg entry: -25%; Lassa entry: -4%

How did COC(=O)[C@@H]1[C@H](CCc2ccccc2)NC(=O)N(Cc2ccccc2)[C@H]1C do in these assays?
Marburg entry: -24%[8.59 µM]

How did Cc1cc2oc(=O)cc(-c3ccccc3)c2c(C)c1-c1ccc(OC(F)(F)F)cc1 do in these assays?
Marburg entry: -4%; Lassa entry: inconclusive

How did FC(F)(F)c1cc(NC(=S)Nc2ccc3cc4ccccc4cc3c2)cc(C(F)(F)F)c1 do in these assays?
Marburg entry: 35%; Lassa entry: -6%

How did COC(=O)C1=CO[C@@H](C)[C@@H]2CN3CC[C@]4(C(=O)Nc5c4ccc(OC)c5OC)[C@H]3C[C@H]12 do in these assays?
Marburg entry: 3%; Lassa entry: 2%

What do the screens show for `Cc1ncsc1CCCl`?
Marburg entry: 5%&16%; Lassa entry: -1%&5%

How did Cc1cc(-c2cc(F)cc3c2OC(CNC(=O)[C@@H]2CCC(=O)N2)C3)ccc1F (stereo not given in full) do in these assays?
Marburg entry: -2%; Lassa entry: -11%

How did CN(CCCC(=O)c1cccnc1)N=O do in these assays?
Marburg entry: -1%; Lassa entry: 13%

What do the screens show for `COc1ccc(C=C2c3ccccc3C(=O)c3ccccc32)cc1O`?
Marburg entry: 1µM*; Lassa entry: inconclusive

What do the screens show for `CN(CC[C@@H](Oc1ccc(-c2ccccc2)cc1)c1ccc(F)cc1)CC(=O)O`?
Marburg entry: 13%; Lassa entry: -19%

What do the screens show for `COc1cc2nc(N(C)C)c(CNCc3cccc4ccccc34)cc2c(OC)c1OC`?
Marburg entry: inconclusive; Lassa entry: 32%[activator]

What do the screens show for `C=C(C)C(=O)OC[C@@H]1CCC[N@+]2(C)CCCCC12` (stereo not given in full)?
Marburg entry: 3%; Lassa entry: -11%

What do the screens show for `C[N+]1(CCF)[C@@H]2CC[C@H]1CC(OC(=O)C(O)(c1ccccc1)c1ccccc1)C2` (stereo not given in full)?
Marburg entry: -7%; Lassa entry: -11%

How did CN(C)C(=O)c1ccc(-c2nc(N(C)C)c3ccccc3n2)cc1 do in these assays?
Marburg entry: 49%[activator]; Lassa entry: 49%[activator]

What do the screens show for `N[C@@H](C(=O)O)c1ccc(C(=O)O)c(O)c1`?
Marburg entry: -25%; Lassa entry: 0%

Results for CC(=O)OCC(=O)[C@H]1CC[C@H]2[C@@H]3CCC4=CC(=O)CC[C@]4(C)[C@H]3CC[C@]12C ?
Marburg entry: 3%; Lassa entry: -25%

Results for CC(C)C[C@H](NC(=O)[C@H](Cc1cnc[nH]1)NC(=O)[C@@H](N)Cc1cnc[nH]1)C(=O)NCC(=O)NCC(=O)N[C@@H](C)C(=O)N[C@@H](CCCCN)C(=O)N[C@@H](CCC(N)=O)C(=O)N[C@@H](C)C(=O)NCC(=O)N[C@@H](CC(=O)O)C(=O)N[C@H](C(=O)O)C(C)C ?
Marburg entry: -16%; Lassa entry: 3%

Results for Cc1cccc(CN2[C@@H](C)[C@H](c3ccccc3)Oc3cc(Br)ccc3S2(=O)=O)c1 ?
Marburg entry: -22%; Lassa entry: -9%

Nothing new here: entries from further up.
What do the screens show for `C[N+]1(CCF)[C@@H]2CC[C@H]1CC(OC(=O)C(O)(c1ccccc1)c1ccccc1)C2` (stereo not given in full)?
Marburg entry: -7%; Lassa entry: -11%

How did CN(C)C(=O)c1ccc(-c2nc(N(C)C)c3ccccc3n2)cc1 do in these assays?
Marburg entry: 49%[activator]; Lassa entry: 49%[activator]

(listing goes on)
Results for CC(CN1c2ccccc2Sc2cccnc21)N(C)C (stereo not given) ?
Marburg entry: inconclusive; Lassa entry: inconclusive

How did COC(=O)CCCC1=CC2=C(c3ccccc3)C(=O)C(C)(OC(=O)C3CCCC3)C(=O)C2=CN1C(CO)CO (stereo not given) do in these assays?
Marburg entry: 17%[8.59 µM]; Lassa entry: 2%[8.59 µM]

What do the screens show for `COc1ccc(OC)c(-c2ccccc2C=NNS(=O)(=O)c2ccc(C)cc2)c1`?
Marburg entry: inconclusive; Lassa entry: -4%[8.59 µM]

How did C=CCN1C[C@H](COC(=O)CSc2ccccc2)Oc2cccc(F)c2S1(=O)=O do in these assays?
Marburg entry: -18%; Lassa entry: -22%

What do the screens show for `c1ccc(-c2nc(-c3ccccc3)c(NC3CCCCC3)o2)cc1`?
Marburg entry: -13%; Lassa entry: -18%

Results for O=Nc1c(O)[nH]c2c(Cl)c(Cl)ccc12 ?
Marburg entry: -28%; Lassa entry: -8%

What do the screens show for `CC(C)=CCCC(C)=CCON=C1C[C@@H](O)[C@@H](O)[C@@H]2[C@H]3C(=O)N(C[C@@H]4CCCO4)C(=O)[C@@H]3CC[C@H]12`?
Marburg entry: 22%[8.59 µM]; Lassa entry: -17%[8.59 µM]

How did C=C1C(N)CC2CC1C2(C)C (stereo not given) do in these assays?
Marburg entry: 7%; Lassa entry: 8%

What do the screens show for `Cc1ccc(C(=O)[C@@H]2[C@H]3C4COC(O4)C(=O)[C@@H]3[C@H]3C=Cc4ccccc4N32)cc1` (stereo not given in full)?
Marburg entry: 5%; Lassa entry: -4%

What do the screens show for `NCCCNCCCCNCCCNC(=O)CCc1ccc(O)cc1`?
Marburg entry: 4%[8.59 µM]; Lassa entry: 3%[8.59 µM]

What do the screens show for `Nc1ccccc1C(=O)C=Cc1ccccc1`?
Marburg entry: 11%[8.59 µM]; Lassa entry: 13%[8.59 µM]

What do the screens show for `O=C1C(c2c(O)[nH]c3ccccc23)=Nc2ccccc21`?
Marburg entry: 20%&15%&16%; Lassa entry: 2%&-1%&3%

What do the screens show for `Cc1ccc(S(=O)(=O)N2CCC(=O)N([C@H](COCc3ccc(Cl)cc3)C(C)C)CC2)cc1`?
Marburg entry: inconclusive; Lassa entry: -23%

What do the screens show for `CC(C)[C@@H](OCc1ccccc1)[C@H](C)C=NO[C@H](C)c1cn([C@H](CO)Cc2ccccc2)nn1`?
Marburg entry: 37%[activator][8.59 µM]; Lassa entry: -4%[8.59 µM]

How did COC(=O)C1=C(C)NC(C)=C([N+](=O)[O-])C1c1ccccc1C(F)(F)F (stereo not given) do in these assays?
Marburg entry: -27%&-7%; Lassa entry: -29%&-13%

What do the screens show for `CCCCCCCCCCCCCc1ccco1`?
Marburg entry: -5%; Lassa entry: 0%

Results for Cc1cc2oc(=O)cc(CN3CCCC3)c2cc1Cl ?
Marburg entry: 10%; Lassa entry: -8%
